Fam108B counter: counter-screen for RBBP9 inhibitors: inhibitors of mouse Fam108B; recombinant Fam108B, FP-Rh probe fluorescence polarization; inhibition, % at 9.51 µM; 0.33% of 300,000 active;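 active = inhibition above the screen mean inhibition plus 3 SD, computed separately per campaign, cut at about 18% in these data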;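 also: inhibitors lower polarization as less probe binds the enzyme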
PME-1 primary: PME-1 (human) inhibition; Q9Y570; recombinant PME-1, FP-Rh probe fluorescence polarization; inhibition, % at 5.9 µM; 0.53% of 320,000 active; AID 2130;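 active = inhibition above the campaign mean of all compounds plus 3 SD, cut at about 26% in these data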;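 also: competitive labeling of PME-1 active site by serine hydrolase directed probe; 0% = PME-1 with DMSO and 100% = wells lacking PME-1 enzyme; inhibitors block probe labeling so polarization falls and inhibition rises; many of its hits are not listed in these tables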
MEX-5 binding: C. elegans MEX-5 TCR-2 RNA binding activity; MEX-5/FITC-TCR2 RNA binding, fluorescence polarization; active compounds read low; activity score (negative = inhibition of binding), % at 10 µM; 0.38% of 300,000 active;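 active = inhibition past about -25% in most replicates, and total fluorescence under double the plate's negative control median, limit read from the data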;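 also: 0% = DMSO and -100% = 5 µM competing unlabeled TCR2 RNA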
GLD-1 TGE inh: GLD-1-TGE RNA interaction inhibition (C. elegans); AID 2280; inhibition, % at 5.96 µM; purified GLD-1 + fluorescein TGE RNA, fluorescence polarization; 0.44% of 320,000 active;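 active = percent inhibition above a per-plate cutoff, the plate mean of test compounds plus 3 SD, cut at about 30% in these data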;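 also: 0% = DMSO wells with GLD-1 and probe and 100% = wells lacking GLD-1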
VLA-4 inh: inhibition in a human VLA-4 binding assay | AID 2557 | 0.2% of 330,000 active | inhibition, % (about 7 µM as worked out from the volumes in the protocol) | VLA-4 expressing cells, ligand binding flow cytometry | P13612; in the data active = inhibition above about 50%
Target sequence (P13612 whole entry, looked up): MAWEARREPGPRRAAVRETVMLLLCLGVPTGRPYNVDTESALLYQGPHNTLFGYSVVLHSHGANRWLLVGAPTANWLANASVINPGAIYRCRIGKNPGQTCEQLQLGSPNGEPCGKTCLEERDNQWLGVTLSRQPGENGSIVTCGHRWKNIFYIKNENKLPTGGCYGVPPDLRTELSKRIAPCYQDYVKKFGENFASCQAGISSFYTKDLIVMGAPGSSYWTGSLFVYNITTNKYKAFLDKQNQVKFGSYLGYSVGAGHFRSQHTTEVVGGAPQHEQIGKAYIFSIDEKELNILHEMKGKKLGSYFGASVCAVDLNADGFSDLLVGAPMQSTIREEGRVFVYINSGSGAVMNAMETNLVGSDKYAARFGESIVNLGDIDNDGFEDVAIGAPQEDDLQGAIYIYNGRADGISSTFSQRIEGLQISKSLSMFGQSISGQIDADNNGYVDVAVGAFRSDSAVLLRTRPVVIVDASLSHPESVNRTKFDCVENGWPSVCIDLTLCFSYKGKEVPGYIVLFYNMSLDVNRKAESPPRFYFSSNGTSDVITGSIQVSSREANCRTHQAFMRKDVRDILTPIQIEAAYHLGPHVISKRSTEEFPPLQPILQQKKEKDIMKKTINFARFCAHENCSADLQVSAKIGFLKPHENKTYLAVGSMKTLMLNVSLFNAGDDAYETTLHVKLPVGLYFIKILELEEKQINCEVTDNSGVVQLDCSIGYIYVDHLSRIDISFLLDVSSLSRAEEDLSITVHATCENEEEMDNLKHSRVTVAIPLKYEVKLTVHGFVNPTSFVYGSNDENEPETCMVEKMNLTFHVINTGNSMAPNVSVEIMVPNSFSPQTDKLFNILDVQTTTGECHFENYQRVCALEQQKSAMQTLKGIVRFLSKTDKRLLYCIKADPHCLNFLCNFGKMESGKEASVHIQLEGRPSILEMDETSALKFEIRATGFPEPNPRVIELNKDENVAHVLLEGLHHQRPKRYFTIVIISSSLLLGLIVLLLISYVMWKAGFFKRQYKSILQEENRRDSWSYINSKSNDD
Efflux pump mplx: antifungal efflux pump inhibition, Nile Red retention; S. cerevisiae Candida pump triplex; inhibition, % at 10 µM; 0.44% of 330,000 active; AID 485275;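 active = plate passing quality check with inhibition over a set limit, or well fluorescence over plate mean plus 4 SD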;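 also: Nile Red retained in pooled yeast measured as flow cytometry median fluorescence; 0% = buffer negative control and 100% = Enniatin B positive control; higher means more Nile Red kept so more efflux inhibition; some compounds called inactive have numbers as strong as hits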
GRK2 inh: human GRK2 inhibition via aptamer displacement | P25098 | bead flow cytometry, FAM-aptamer displacement from GRK2 | inhibition of aptamer binding, % at 10 µM | 0.59% of 330,000 active | AID 488847;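 active = inhibition of aptamer binding above 40%, roughly 3 SD of noise, on plates passing a quality check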;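 also: median bead fluorescence of bound FAM aptamer so fluorescent compounds give negative values; no value below 0 was filed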
* marks the source's active call; other numbers are inactive results; . = not tested or not shown. These rows are one share of the data; the hit share may differ from the screen's.

nr | mol | Fam108B counter | PME-1 primary | MEX-5 binding | GLD-1 TGE inh
1 | COc1ccc(NC(=O)c2cccnc2Nc2ccccc2)cc1 | 6 | -4 | 1.8 | 5
2 | Cn1nnc2c(C(N)=O)ncn2c1=O | 2 | 2 | . | -1
3 | CC(CN(C)C)CN1c2ccccc2Sc2ccccc21 (stereo not drawn) | 0 | 0 | . | 3
4 | Cc1ccc(Nc2nc(N)nc(CSc3nccn3C)n2)cc1 | 0 | 3 | -3.8 | 2
5 | O=C(C1CCCCC1)N1CC(=O)N2CCc3ccccc3C2C1 (stereo not drawn) | 1 | -1 | -2.0 | 4
6 | COC(=O)c1ccc(NC(=O)CC2C(=O)N(C)C(=S)N2Cc2ccc(S(N)(=O)=O)cc2)cc1 (stereo not drawn) | 3 | 2 | 1.3 | 4
7 | COc1ccccc1NC(=O)N(Cc1ccccc1)C1=NCC(C)S1 (stereo not drawn) | 3 | -2 | -0.9 | 9
8 | Cc1ccccc1OCCNC(=O)CSc1ccc(C(F)(F)F)cc1[N+](=O)[O-] | 1 | 3 | -0.9 | 8
9 | Nc1c(C(=O)Nc2ccc(Br)cc2)sc2nc(-c3ccco3)ccc12 | 14 | 36* | 0.4 | -3
10 | CC(C)COCC(CN(Cc1ccccc1)c1ccccc1)N1CCCC1 (stereo not drawn) | -1 | 0 | 6.5 | 3

nr | VLA-4 inh | Efflux pump mplx | GRK2 inh
1 | . | -0.1 | 0
2 | -9 | -0.1 | 7
3 | 34 | -0.2 | 3
4 | -19 | -0.2 | 1
5 | 14 | 0.0 | 0
6 | -6 | 0.2 | 5
7 | 7 | 0.6 | 2
8 | 37 | -0.1 | 2
9 | -17 | 0.2 | 1
10 | 24 | 0.1 | 10

Continuation.
nr | mol | Fam108B counter | PME-1 primary | MEX-5 binding | GLD-1 TGE inh
11 | Cc1cc(C(F)F)n2ncc(C(=O)N3CCCCC3)c2n1 | 1 | -2 | -0.7 | 10
12 | Cc1ccc(/C=C2/NC(=O)N(c3ccccc3)C2=O)o1 | 3 | 4 | -4.1 | 50*
13 | O=c1[nH]c(/C=C/c2cccc3ccccc23)nc2ccccc12 | -29 | -13 | -50* | 9
14 | Cc1nc(-c2ccccn2)sc1C(=O)Nc1ccc(F)cc1 | -4 | 3 | -0.5 | 5
15 | CC(=O)N1CCN(Cc2nc3cc(Cl)ccc3c(=O)[nH]2)CC1 | 0 | -11 | -0.4 | 2
16 | CCCCC1=CC2=CC(=O)C(C)(OC(=O)CCc3ccccc3)C(=O)C2=CO1 (stereo not drawn) | 1 | 0 | 2.6 | 28
17 | CCNC(=S)N1CCC(NC(=O)c2ccco2)CC1 | -2 | -4 | -0.3 | 9
18 | c1ccc(CSCc2ccccc2)cc1 | 2 | 4 | . | 1
19 | Nc1nc(/C=C/c2cccnc2)nc(-c2ccccc2O)n1 | -11 | -3 | 0.9 | -16
20 | O=c1cc(O)c2sc3nc(-c4ccccc4)cc(C(F)(F)F)c3c2[nH]1 | -4 | 7 | 5.1 | 6

nr | VLA-4 inh | Efflux pump mplx | GRK2 inh
11 | -3 | -0.1 | 1
12 | -10 | 0.0 | 0
13 | -3 | 0.1 | 0
14 | 3 | 0.2 | 7
15 | 0 | 0.1 | 87*
16 | -35 | 0.1 | 4
17 | 2 | 0.0 | 0
18 | 19 | -0.2 | 0
19 | -3 | 0.3 | 1
20 | -17 | 2.6 | 1

(list continues)
nr | mol | Fam108B counter | PME-1 primary | MEX-5 binding | GLD-1 TGE inh
21 | CCOC(=O)c1cc(C#N)c(Oc2ccc(F)cc2)nc1-c1ccccc1 | -6 | -3 | -1.2 | -1
22 | Cc1ccc(CNC(=O)CCc2ccc(S(=O)(=O)NC3CCCCC3)cc2)cc1 | 1 | 4 | 0.6 | 2
23 | CCc1cc2c(N[C@@H](Cc3c[nH]c4ccccc34)C(=O)O)ncnc2s1 | -1 | 3 | 3.4 | -5
24 | CCSc1nc(N)c(C#N)c(-c2ccccc2Cl)c1C#N | -2 | 3 | -0.4 | -21
25 | CCN(C(=O)c1cc2c(=O)[nH]c3ccc(C)cc3c2s1)c1cccc(C)c1 | -9 | 1 | 1.5 | -3
26 | CCc1nc(NCC2CCCN2CC)c2nnn(Cc3ccccc3F)c2n1 (stereo not drawn) | 0 | -5 | -3.2 | 2
27 | COc1cccc(C(=O)Nc2ccc(C)cc2)c1 | -2 | 1 | -2.4 | 1
28 | COc1ccc(N=Cc2nc(-c3ccco3)oc2O)cc1 | 18 | -21 | -3.3 | 1
29 | COc1cccc(NC(=O)CSc2nc3ccccc3c3nc4ccccc4n23)c1 | -22 | -1 | 3.1 | 1
30 | Cn1c(C(=O)O)cc2c(=O)n3ccccc3nc21 | 2 | 2 | -0.7 | 4

nr | VLA-4 inh | Efflux pump mplx | GRK2 inh
21 | 7 | -0.1 | 0
22 | 8 | 0.1 | 1
23 | 9 | 0.4 | 2
24 | 6 | 0.0 | 0
25 | 1 | 0.0 | 0
26 | 19 | 0.1 | 0
27 | 33 | -0.1 | 3
28 | 9 | 0.0 | 2
29 | 1 | -0.9 | 0
30 | -5 | -0.2 | 1

(next part)
nr | mol | Fam108B counter | PME-1 primary | MEX-5 binding | GLD-1 TGE inh
31 | CCC(C)n1c(-c2ccco2)nc2nc3ccccc3nc21 (stereo not drawn) | -3 | -4 | -0.5 | 6
32 | CCN1C(=O)C(CC(=O)Nc2ccc(F)cc2)N(Cc2ccco2)C1=S (stereo not drawn) | -3 | -1 | -0.6 | 0
33 | COC(=O)N/N=C/c1c(C)c(C(=O)c2ccc(F)cc2)n2ccccc12 | 1 | 4 | -11 | 3
34 | O=C(Nc1nccs1)c1cn2ccccc2n1 | 1 | 0 | 2.6 | -2
35 | COc1ccc2[nH]c(C)c(C(=O)CN(C)CC3OCCO3)c2c1 | 1 | 3 | 0.0 | 10
36 | COc1ccc(-c2cc(C(F)(F)F)c3c(n2)sc2c(O)cc(=O)[nH]c23)c(OC)c1 | 4 | -9 | -2.9 | -5
37 | Cn1c(=NC(=O)CSCC(=O)N2CCOCC2)sc2ccccc21 | 4 | -2 | . | -1
38 | COc1ccc([N+](=O)[O-])cc1NC(=O)c1ccc(Br)s1 | -44 | -28 | . | 8
39 | COc1ccc(-c2cnn(C3CCS(=O)(=O)C3)c2N)cc1 (stereo not drawn) | -1 | 1 | 0.3 | 2
40 | COC(=O)c1ccc2c(=O)[nH]c(CCl)nc2c1 | 5 | -2 | 0.5 | -1
41 | CCCCN(C(=O)Nc1ccc(Cl)cc1)C1CCN(C(C)=O)CC1 | 3 | 4 | 2.4 | 6
42 | CCc1cc(Cl)c(OC)c(C(=O)NC[C@@H]2CCCN2CC)c1O | 5 | -6 | 2.1 | 1

nr | VLA-4 inh | Efflux pump mplx | GRK2 inh
31 | -37 | 0.1 | 1
32 | -1 | 0.2 | 3
33 | 4 | -0.6 | 0
34 | 5 | -0.3 | 8
35 | 3 | 0.0 | 0
36 | -16 | 0.5 | 2
37 | 2 | 0.0 | 2
38 | 5 | 0.2 | 2
39 | 1 | 0.1 | 0
40 | 12 | 0.0 | 2
41 | 1 | 0.1 | 0
42 | 43 | 0.1 | 0

Some of the entries so far, as tab-separated lines.
#	mol	Fam108B counter	PME-1 primary	MEX-5 binding	GLD-1 TGE inh	VLA-4 inh	Efflux pump mplx	GRK2 inh
20	O=c1cc(O)c2sc3nc(-c4ccccc4)cc(C(F)(F)F)c3c2[nH]1	-4	7	5.1	6	-17	2.6	1
4	Cc1ccc(Nc2nc(N)nc(CSc3nccn3C)n2)cc1	0	3	-3.8	2	-19	-0.2	1
36	COc1ccc(-c2cc(C(F)(F)F)c3c(n2)sc2c(O)cc(=O)[nH]c23)c(OC)c1	4	-9	-2.9	-5	-16	0.5	2

Reformatted with tabs: part of the list above
No.	SMILES	Fam108B counter	PME-1 primary	MEX-5 binding	GLD-1 TGE inh	VLA-4 inh	Efflux pump mplx	GRK2 inh
27	COc1cccc(C(=O)Nc2ccc(C)cc2)c1	-2	1	-2.4	1	33	-0.1	3
28	COc1ccc(N=Cc2nc(-c3ccco3)oc2O)cc1	18	-21	-3.3	1	9	0.0	2
29	COc1cccc(NC(=O)CSc2nc3ccccc3c3nc4ccccc4n23)c1	-22	-1	3.1	1	1	-0.9	0
30	Cn1c(C(=O)O)cc2c(=O)n3ccccc3nc21	2	2	-0.7	4	-5	-0.2	1
31	CCC(C)n1c(-c2ccco2)nc2nc3ccccc3nc21 (stereo not drawn)	-3	-4	-0.5	6	-37	0.1	1
32	CCN1C(=O)C(CC(=O)Nc2ccc(F)cc2)N(Cc2ccco2)C1=S (stereo not drawn)	-3	-1	-0.6	0	-1	0.2	3
33	COC(=O)N/N=C/c1c(C)c(C(=O)c2ccc(F)cc2)n2ccccc12	1	4	-11	3	4	-0.6	0
34	O=C(Nc1nccs1)c1cn2ccccc2n1	1	0	2.6	-2	5	-0.3	8
35	COc1ccc2[nH]c(C)c(C(=O)CN(C)CC3OCCO3)c2c1	1	3	0.0	10	3	0.0	0
36	COc1ccc(-c2cc(C(F)(F)F)c3c(n2)sc2c(O)cc(=O)[nH]c23)c(OC)c1	4	-9	-2.9	-5	-16	0.5	2
37	Cn1c(=NC(=O)CSCC(=O)N2CCOCC2)sc2ccccc21	4	-2	.	-1	2	0.0	2
38	COc1ccc([N+](=O)[O-])cc1NC(=O)c1ccc(Br)s1	-44	-28	.	8	5	0.2	2
39	COc1ccc(-c2cnn(C3CCS(=O)(=O)C3)c2N)cc1 (stereo not drawn)	-1	1	0.3	2	1	0.1	0

Assay outcomes: PubChem, several laboratories
